# Sfp inh: qHTS Assay for Inhibitors of Bacillus subtilis Sfp phosphopantetheinyl transferase (PPTase); 4'-phosphopantetheinyl transferase ffp (Bacillus subtilis), Q9F4F7; Biochemical Sfp PPTase activity, qHTS; Potency, µM, without a hit: max response, negative = inhibition, hits mostly inhibitors; hit rate 3.5% among 310,000; active = well fitted inhibition curve with a large enough effect; inconclusive = small, poorly fitted or top-dose-only effect, or another doubt; inactive = no such curve, though single readings can be large or run the other way;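 note: the enzyme is Sfp with the accession as filed and its product quenches rhodamine fluorescence; potency is the fitted concentration of half-maximal effect; 0% = enzyme reaction without inhibitor and -100% = no enzyme wells; top concentration of the series not given in the record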
#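 Fluorescence-quenching assay: 15 nM Sfp-PPTase preincubated 15 min at room temperature with compound, then 5 uM rhodamine-CoA and 12.5 uM BHQ-2-labelled YbbR peptide added. Fluorescence (ex 525/em 598 nm) read at start and after 30 min; difference gives rate.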
# gsp antag: qHTS for Antagonists of gsp, the Etiologic Mutation Responsible for Fibrous Dysplasia/McCune-Albright Syndrome: qHTS. hit rate 0.4% among 340,000. Potency, µM (doses to about 76.9 µM), for inactives: at the highest dose activity change, negative = inhibition, most hits filed as inhibitors. gsp-mutant cells, cAMP HTRF, 30 min; control for the full effect not named in the record. AID 624288, 2012; active = falling curve of any shape with a large fitted effect; inconclusive = falling curve, mostly with a smaller effect; inactive = flat or rising curve; cell line not stated here;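 note: intracellular cAMP measured with PDE inhibitor Ro 20-1724 present during compound exposure; potency is the fitted concentration of half-maximal effect; % is set by controls: 0 for no effect and ±100 for the full control effect; nearly all actives have a fitted effect of over 65% in size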
#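 HTRF cAMP read-out (cAMP-d2 plus anti-cAMP antibody-K in lysis buffer, 30 min RT). Before lysis, cells are exposed to compounds with […] for 30 min at 37C in DPBS containing Ca/Mg, BSA and Tween 20.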
# D2 agonist: Beta-Arrestin HTS for Positive Allosteric Modulators of the Human D2 Dopamine Receptor: Agonists. D(2) dopamine receptor (Homo sapiens), P14416. hit rate 0.084% among 360,000. AID 624465, 2012. DiscoveRx PathHunter D2 beta-arrestin, luminescence, 90 min; 100% = 57 uM dopamine signal. activation, % (concentration not given with the values); in the data active = activation above about 40%; inconclusive = about 15% to 40%; inactive = below about 15%; note: compound concentration not given in the record; the text of the record calls up to 30% inactive
# Target sequence (P14416 whole entry, looked up): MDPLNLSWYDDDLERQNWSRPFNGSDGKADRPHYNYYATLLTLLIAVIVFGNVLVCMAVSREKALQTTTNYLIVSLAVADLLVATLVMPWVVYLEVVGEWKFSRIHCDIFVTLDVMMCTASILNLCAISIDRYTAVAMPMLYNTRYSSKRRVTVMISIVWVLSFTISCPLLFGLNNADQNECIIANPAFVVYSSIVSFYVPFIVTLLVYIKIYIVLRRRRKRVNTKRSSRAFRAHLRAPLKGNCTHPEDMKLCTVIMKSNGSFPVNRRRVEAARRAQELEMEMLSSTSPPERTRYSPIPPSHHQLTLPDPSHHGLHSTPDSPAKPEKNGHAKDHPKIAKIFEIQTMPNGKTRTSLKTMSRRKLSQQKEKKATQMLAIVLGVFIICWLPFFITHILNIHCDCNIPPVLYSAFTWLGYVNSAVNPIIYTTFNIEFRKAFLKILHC
#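 Agonist mode: compounds alone added to overnight-plated D2 PathHunter cells for 90 min at 37 C, with 57 uM final dopamine (EC100) defining full response. Beta-arrestin recruitment detected by chemiluminescent reagent, read after 1 h at ambient temperature.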
# ClpP mod: qHTS Assay for Activators of ClpP | ATP-dependent Clp protease proteolytic subunit (Bacillus subtilis (strain 168)), P80244 | purified B. subtilis ClpP, FRET peptide cleavage, 20 min | Potency, µM (highest dose often 57.5 µM), inactives show at the highest dose activity change, negative = active | hit rate 1.9% among 340,000; active = well fitted falling curve with a large enough effect; inconclusive = small, poorly fitted or top-dose-only effect; inactive = no such curve, though single readings can be large or run the other way; note: potency is the fitted concentration of half-maximal effect; the source files actives as falling curves though it sought activators and does not explain the sign; nearly all actives have a fitted effect of over 65% in size; many hits overshoot -100%
# Target sequence (P80244 whole entry, looked up): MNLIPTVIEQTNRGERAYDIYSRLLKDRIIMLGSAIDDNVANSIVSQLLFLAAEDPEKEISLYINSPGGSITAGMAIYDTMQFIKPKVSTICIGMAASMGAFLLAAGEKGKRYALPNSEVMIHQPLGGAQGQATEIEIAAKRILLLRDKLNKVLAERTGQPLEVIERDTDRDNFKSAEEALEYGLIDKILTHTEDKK
#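 ClpP 10 microg/mL final, pH 8 Tris/KCl buffer with BSA, glycerol, Tween-20; compound pinned in; FRET-FV substrate; RT 20 min; Ex320/Em430; ΔFRET vs ADEP 5.8 microM, DMSO, no enzyme.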
# Menin-MLL FL inh: qHTS Assay for Inhibitors Targeting the Menin-MLL Interaction in MLL Related Leukemias: Competition With Fluorescein Labeled MLL-derived Peptide | Fluorescence polarization, fluorescein-MLL peptide displacement from menin | FP activity change, % at 61.4 µM | 290,000 tested, under 10 active; inconclusive = falling polarisation curve, or a change in total fluorescence; inactive = total fluorescence flat and polarisation flat or rising; no compound was filed as active; the % refers to the polarisation; negative = inhibition;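 note: % of control where 0% means no effect; inhibitors lower the polarisation; unlabelled MLL peptide was the positive control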
# PINK1 expr mod: A Quantitative High throughput Screen to Identify Chemical Modulators of PINK1 Expression | hit rate 0.2% among 410,000 | PINK1 immunofluorescence, high-content cytometry, 24 h | Potency, µM (top dose mostly 76.6 µM), without a hit: at the top dose activation (PINK1 increase), usual class: activators; active = well fitted activation curve with a large enough effect; inconclusive = small, poorly fitted or top-dose-only effect; inactive = flat fitted curve, though single readings scatter; cell line not stated here;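 note: potency is the fitted concentration of half-maximal effect; % of control where 0% means no effect; nearly all actives have a fitted effect of over 65% in size; a mitochondrial uncoupler was the plate control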
#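 Readout is PINK1 immunofluorescence, quantified alongside mitochondrial, cell and nuclear markers by laser-scanning microplate cytometry. Cells from a stable line were exposed to compound titrations (5 concentrations) for 24 hours, with CCCP controls.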
# gsp agonist: qHTS for Agonist of gsp, the Etiologic Mutation Responsible for Fibrous Dysplasia/McCune-Albright Syndrome: qHTS | gsp mutant cells, cAMP HTRF, 30 min; control for the full effect not named in the record | Potency, µM (highest dose often 76.9 µM), without a hit: at the top dose activation (cAMP increase), actives largely listed as activators | hit rate 0.13% among 340,000 | AID 624287, 2012; active = well fitted activation curve with a large enough effect; inconclusive = small, poorly fitted or top-dose-only effect, or another doubt; inactive = no such curve, though single readings can be large or run the other way; cell line not stated here;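 note: phosphodiesterase inhibitor Ro 20-1724 added with compounds to block cAMP breakdown; potency is the fitted concentration of half-maximal effect; nearly all actives have a fitted effect of over 60% in size; about a fifth of the inactives were tested at one dose only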
#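 Cells stably selected in G418 were plated at 2000/well, grown 16-24 hr, then given compounds in DMSO with the PDE inhibitor […] (300 uM solution added) for 30 min at 37C; cAMP was read by HTRF.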
# * marks the source's active call; other numbers are inactive results; ? = inconclusive; nt = not tested or not shown; [ ] = remark or other dose.
SMILES,Sfp inh,gsp antag,D2 agonist,ClpP mod,Menin-MLL FL inh,PINK1 expr mod,gsp agonist
Cc1ccc(NC(=O)NNC(=O)Cn2nc(-c3ccccc3)c(-c3ccccc3)c(C#N)c2=O)cc1,2%,-17%,-0.7,1.6%,-5.3,3.3%,-11%
Cc1cc(F)ccc1S(=O)(=O)N(CC(=O)N1CCOCC1)CC(=O)N1CCOCC1,nt,5%,1.1,nt,nt,-1.7%,-7%
CC(C)CNC(=O)c1cccc(NC(=O)C(C)C)c1,15%,6%,-2.0,nt,0.9,2.5%,20%
CCOc1ccc(CCN2C(=O)C3C4CCC(O4)C3C2=O)cc1OCC (centres undefined),nt,6%,-5.7,-1.4%,nt,-2.2%,2%
O=C(COC(=O)[C@H](Cc1ccccc1)NS(=O)(=O)c1ccccc1F)NC1CCCCC1,4%,-21%,-1.6,1.0%,-2.0,0.0%,-5%
Clc1ccc(-c2nn3c(C4COc5ccccc5O4)nnc3s2)cc1 (centres undefined),14µM*,0%,-5.3,2.3%,-0.4,5.8%,12%
COc1ccc2c(c1OC)C(=O)OC2CC(=O)c1ccc(N(C)C)cc1 (centres undefined),13%,-7%,-3.6,-2.0%,6.1,0.0%,-48%[inhibitor]
Cc1cc(N2CCOCC2)nc(N2CCOCC2)c1C#N,nt,nt,-2.0,-1.9%,nt,-1.2%,?
CCN1C(=O)C(CC(=O)Nc2ccc(OC)cc2)N(Cc2ccco2)C1=S (centres undefined),-10%,-6%,-6.3,-0.4%,2.4,0.2%,-47%[inhibitor]
CCC(C)c1nc2ccsc2c(N2CCOC2=O)c1-c1ccccc1 (centres undefined),nt,-6%,-3.6,-7.3%,nt,0.9%,2%
Cc1nnc(SCC(=O)Nc2ccc(Br)cn2)[nH]c1=O,-15%,-5%,-1.6,1.1%,0.3,2.3%,7%
COc1ccc(CNC/C=C/c2ccccc2)cc1,6%,12%,-5.4,0.0%,-3.3,-0.1%,-42%
CCOc1ccc(OCCC(=O)OCC(=O)N2CCN(S(=O)(=O)c3ccc(C)cc3)CC2)cc1,nt,17%,5.7,1.8%,nt,17%,-8%
Clc1cc(CSc2ccccc2)nc(-c2ccccc2)n1,9%,-15%,0.3,-1.5%,1.7,2.3%,-34%[inhibitor]
CC(C)c1ccc(NC(=O)C2Cc3c(-c4ccccc4Oc4ccccc4)ccnc3O2)cc1 (centres undefined),nt,nt,-2.9,-10%,nt,3.6%,nt
Cc1ccc(S(=O)(=O)NCCNS(=O)(=O)c2ccc(C)cc2)cc1,6%,-18%,3.6,-1.0%,-6.8,-0.5%,15%[15.4 µM]
COc1ccc(C2c3sc(=O)[nH]c3SCC2C(N)=O)cc1 (centres undefined),23%,4%,-5.0,-0.5%,26,1.4%,-7%
COc1ccc(S(=O)(=O)N2CCN(CC(=O)c3c(N)n(C)c(=O)n(C)c3=O)CC2)cc1OC,nt,nt,-2.7,-0.6%,nt,-0.3%,?
Cc1cccc(NS(=O)(=O)c2ccc3c(c2)CCN3C(=O)CCC(=O)O)c1,12%,18%,3.3,1.2%,5.1,5.0%,?
Cc1ccc(N2C(=O)C3C4C=CC(CNC(=S)N5CCN(c6ccccn6)CC5)(O4)C3C2=O)cc1 (centres undefined),28µM*,10%,3.0,-17%,5.1,4.8%,?
Cc1ccc(C(=O)NNC(=S)Nc2cccc3ccccc23)s1,-2%,0%,-5.2,4.9%,2.3,-0.1%,-29%
COC(CNS(=O)(=O)c1ccc(Cl)cc1)c1ccccc1 (centres undefined),3%,3%,2.6,nt,1.1,2.6%,3%
CN(C)C(=O)CSc1nnc(-c2cccs2)n1-c1ccccc1,23%,-5%,-3.8,nt,-1.0,1.0%,2%[15.4 µM]
Cc1ccc(NC(=O)C2CC(=O)N(c3ccc4c(c3)OCCO4)C2)cc1S(=O)(=O)N(C)C (centres undefined),nt,2%,-3.7,-21%,nt,0.8%,-43%[inhibitor]
COc1nc(OC)nc(N(C)CCO)n1,23%,-5%,-0.5,1.3%,-1.3,-3.1%,3%
CCOc1ccc(NC(=O)c2nn(C)c(C(=O)Nc3ccc(OCC)cc3)c2[N+](=O)[O-])cc1,21%,5%,0.8,-0.4%,0.7,0.5%,8%[15.4 µM]
Cc1nonc1-c1csc(N)n1,18%,3%,-5.8,-0.1%,-6.4,-1.9%,-23%[15.4 µM]
CC1CCN(c2ccc(NC(=O)c3ccc([N+](=O)[O-])o3)cc2)CC1,nt,1%,8.1,5.1%,nt,-2.3%,-50%[inhibitor]
CCCCCCNC(=O)c1cc(S(=O)(=O)N2CCc3ccccc32)ccc1F,12%,6%,-3.5,-1.0%,1.0,9.0%,2%
CCC(=O)Nc1cccc(NC(=S)NC(=O)c2ccccc2C)c1,6%,0%,-8.3,0.6%,-1.3,0.6%,-1%
CC1CCC/C=C/C(=O)c2c(O)cc(O)cc2CC(=O)O1 (centres undefined),-18%,-1%,-4.9,-7.1%,-1.9,-0.7%,nt
CC(=O)N1CCN(c2ccc(NC(=O)c3ccc4ccccc4c3)cc2)CC1,0%,6%,-3.3,1.3%,nt,2.9%,-4%[15.4 µM]
C/C(=N\NC(=O)c1cccc(Br)c1)c1ccccn1,18%,-20%,-7.1,-26%,0.7,3.9%,-8%[15.4 µM]
CCN1CCCC1CNC(=O)CN(C)S(=O)(=O)c1ccc(Cl)cc1 (centres undefined),6%,14%,-2.7,nt,-2.0,-1.6%,22%
Cc1cc(S(=O)(=O)NCc2ccccn2)c(Cl)cc1Cl,17%,12%,-4.1,1.3%,-0.2,1.0%,-19%
COc1ccc(C(=O)Cn2c(=O)c(CCC(=O)O)nn3c4ccccc4nc23)cc1OC,13%,22%,-2.5,?,1.9,-1.4%,-2%
CCCCn1c(N)c(N(CCOC)C(=O)CC2CCCCC2)c(=O)[nH]c1=O,nt,7%,-5.6,-2.7%,nt,-1.3%,-1%
COc1cccc(NC(=O)CN(C)C(=O)c2cn(-c3ccccc3)nc2-c2cccs2)c1,nt,?,-3.1,nt,nt,-2.7%,-20%[15.4 µM]
CC1CCCCN1C(=O)Cn1cc(C#N)c2ccccc21 (centres undefined),-2%,-3%,-3.2,0.6%,-0.3,-0.2%,9%
Cc1oc(-c2ccccc2F)nc1CS(=O)(=O)CC(=O)NCCN1CCCC1,8%,8%,-1.9,nt,3.4,4.0%,21%

# Among those listed so far, two have a furan ring, fused or not:
SMILES,Sfp inh,gsp antag,D2 agonist,ClpP mod,Menin-MLL FL inh,PINK1 expr mod,gsp agonist
CCN1C(=O)C(CC(=O)Nc2ccc(OC)cc2)N(Cc2ccco2)C1=S (centres undefined),-10%,-6%,-6.3,-0.4%,2.4,0.2%,-47%[inhibitor]
CC1CCN(c2ccc(NC(=O)c3ccc([N+](=O)[O-])o3)cc2)CC1,nt,1%,8.1,5.1%,nt,-2.3%,-50%[inhibitor]

# (next part)
SMILES,Sfp inh,gsp antag,D2 agonist,ClpP mod,Menin-MLL FL inh,PINK1 expr mod,gsp agonist
CCCCCn1c(=O)[nH]c2cc(C(=O)NCCN3CCCCC3C)ccc2c1=O (centres undefined),4%,-9%,4.5,0.2%,1.1,16%,-7%[15.4 µM]
c1ccc(-n2cc(CN3CCCC(CN4CCCC4)C3)c(-c3ccc4c(c3)OCO4)n2)cc1 (centres undefined),-17%,16%,-2.4,4.1%,?,0.2%,-89%[inhibitor]
CCC(C)(C(=O)NC1CCCCC1)N(CC1CCCO1)C(=O)CNC(=O)c1ccccc1 (centres undefined),2%,8%,-5.4,0.9%,1.5,0.9%,-38%[inhibitor]
O=C(Nc1cnn(Cc2ccc(Cl)cc2Cl)c1)c1noc2c1CCCC2,-15%,-16%,-5.7,-0.6%,-0.5,0.5%,-25%
CCOCCOC(=O)Cn1cnc2scc(-c3ccc(C)cc3)c2c1=O,8%,-12%,-1.9,-0.7%,6.0,5.0%,4%
Cc1ccccc1NC(=O)CCCCC(=O)Nc1ccccc1C,-6%,6%,8.4,-0.4%,0.7,-0.9%,8%[15.4 µM]
COc1cccc(NC(=S)NCCC(c2ccccc2)c2ccccc2)c1,23%,-18%,0.4,0.9%,-2.9,?,-6%
CSc1ccccc1C(=O)Nc1cccc(N(C)S(C)(=O)=O)c1,12%,-15%,-0.4,0.6%,2.3,-2.8%[38.3 µM],11%
Cn1c(-c2ccc(F)cc2)cnc1NCc1cc2c(cc1[N+](=O)[O-])OCO2,11%,0%,-2.4,1.2%,-1.4,4.6%,-8%
O=C(/C=C/c1ccco1)NC(=S)Nc1ccc(N2CCOCC2)c(Cl)c1,17%,7%,0.9,-1.5%,18,24%,-22%
CCOC(=O)c1c(C)nc2ccccc2c1-c1ccccc1,79µM*,0%,1.7,-1.6%,3.7,?,13%[15.4 µM]

# In another format: results already given
mol	Sfp inh	gsp antag	D2 agonist	ClpP mod	Menin-MLL FL inh	PINK1 expr mod	gsp agonist
COc1cccc(NC(=S)NCCC(c2ccccc2)c2ccccc2)c1	23%	-18%	0.4	0.9%	-2.9	?	-6%
CSc1ccccc1C(=O)Nc1cccc(N(C)S(C)(=O)=O)c1	12%	-15%	-0.4	0.6%	2.3	-2.8%[38.3 µM]	11%
CCOC(=O)c1c(C)nc2ccccc2c1-c1ccccc1	79µM*	0%	1.7	-1.6%	3.7	?	13%[15.4 µM]
CCC(C)(C(=O)NC1CCCCC1)N(CC1CCCO1)C(=O)CNC(=O)c1ccccc1 (centres undefined)	2%	8%	-5.4	0.9%	1.5	0.9%	-38%[inhibitor]
Cc1ccccc1NC(=O)CCCCC(=O)Nc1ccccc1C	-6%	6%	8.4	-0.4%	0.7	-0.9%	8%[15.4 µM]
